VDR inhibitor = inhibitors of human vitamin D receptor | P11473 | VDR-SRC2-3 peptide fluorescence polarization, 2 h | Potency, µM, without a hit: max response, negative = inhibition, actives largely listed as inhibitors | actives 0.93% (n = 400,000) | AID 504847; active = well fitted inhibition curve with a large enough effect; inconclusive = small, poorly fitted or top-dose-only effect, or another doubt; inactive = no such curve, though single readings can be large or run the other way; also: series mostly up to about 120 µM
Target sequence (P11473 whole entry, looked up): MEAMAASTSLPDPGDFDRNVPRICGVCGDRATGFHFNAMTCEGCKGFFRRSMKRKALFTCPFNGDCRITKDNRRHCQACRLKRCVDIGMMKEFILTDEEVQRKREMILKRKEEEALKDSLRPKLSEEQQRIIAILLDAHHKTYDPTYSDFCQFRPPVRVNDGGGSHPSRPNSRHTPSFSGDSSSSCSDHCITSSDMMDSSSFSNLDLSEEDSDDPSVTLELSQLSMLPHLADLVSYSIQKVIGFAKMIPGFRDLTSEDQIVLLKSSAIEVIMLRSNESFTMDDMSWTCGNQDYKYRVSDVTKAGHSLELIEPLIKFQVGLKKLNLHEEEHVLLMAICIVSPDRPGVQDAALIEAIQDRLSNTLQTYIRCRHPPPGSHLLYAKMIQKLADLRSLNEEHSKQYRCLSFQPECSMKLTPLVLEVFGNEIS
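Signal is fluorescence polarization, reporting how far test compounds block the interaction of VDR with the SRC2-3 coregulator peptide after a 2 h room-temperature incubation.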
Numbers without * were called inactive; u = inconclusive; & = joins results of further samples; [ ] = dose if it differs, or a comment. % is scaled to controls: 0 for no effect and ±100 for the full control effect; potency is read from the fitted curve at half-maximal effect.

Start of the listing, in advance, three compounds:
SMILES | VDR inhibitor
COc1ccc(S(=O)(=O)Nc2nc3ccccc3s2)cc1 | 11%
Cc1cccc(NC(=O)CSc2cccc3cccnc23)c1 | 6%
COc1cc2c(cc1OC)C1=C(C#N)CN(C3CCCCC3)CN1CC2 | -16%

This part in full, from the first entry:
SMILES | VDR inhibitor
COc1ccc(S(=O)(=O)Nc2nc3ccccc3s2)cc1 | 11%
Cc1cccc(NC(=O)CSc2cccc3cccnc23)c1 | 6%
COc1cc2c(cc1OC)C1=C(C#N)CN(C3CCCCC3)CN1CC2 | -16%
COc1ccc(Cl)cc1NC(=O)C1CCCN(S(C)(=O)=O)C1 (stereo not given) | -20%
CCN(CC)C(=O)c1ccc(CS(=O)(=O)Cc2ccccc2)cc1 | -12%
CNC(=O)NC(=O)COC(=O)c1ccc(-n2c(C)ccc2C)cc1 | 0%
CC(C)C[C@@H]1CN=C(N)N1C[C@@H]1CCCN1C[C@H](C)N1C[C@@H](Cc2ccccc2)N(CCc2ccc(Cl)c(Cl)c2)C1=N | -2%
COc1ccc(C(=O)NCS(=O)(=O)c2ccc(C)cc2)cc1 | 14%
CCCOc1ccc(N2C(=O)CC(NCCc3ccc(S(N)(=O)=O)cc3)C2=O)cc1 (stereo not given) | 8%
O=C(COc1ccccc1Cl)Nc1ccc(S(=O)(=O)Nc2ccccn2)cc1 | 6%
Cc1nnc(SCC(=O)NCc2ccccc2Cl)n(N)c1=O | 6%
CC1CCN(S(=O)(=O)N2CCC(C(=O)NCc3cccnc3)CC2)CC1 | 14%
Nc1nc(CN2CCN(c3ccccc3F)CC2)nc(Nc2ccc3c(c2)OCCO3)n1 | 32%[activator]
COc1ccc(NC(=O)CN2CCCN(S(=O)(=O)c3ccc(F)cc3)CC2)cc1 | 6%
CS(=O)(=O)N1CCC(C(=O)Nc2ccc(Oc3ccccc3)cc2)CC1 | 1%
CN1C2CCC1/C(=C\c1ccccc1F)C(=O)/C2=C/c1ccccc1F | -6%
CCC1=C(OC(=O)N(CC)CC)N2C(=O)OC(=NCC3CC3)[C@]2(Cc2ccccc2)[C@H]2C1=CC[C@H]1C(=O)NC(=O)[C@H]12 | 1%
CCOC(=O)Cc1c(C)[nH]c(=S)[nH]c1=O | -7%
O=C(CCCOc1ccc(Cl)cc1)Nc1nncs1 | 11%
COC(=O)C1=C(C)N(C2CCCCC2)C(=O)C1 | 14%

Shown as comma-separated lines: three of the compounds above.
canonical_smiles,VDR inhibitor
CCC1=C(OC(=O)N(CC)CC)N2C(=O)OC(=NCC3CC3)[C@]2(Cc2ccccc2)[C@H]2C1=CC[C@H]1C(=O)NC(=O)[C@H]12,1%
CCOC(=O)Cc1c(C)[nH]c(=S)[nH]c1=O,-7%
O=C(CCCOc1ccc(Cl)cc1)Nc1nncs1,11%

Continuation.
SMILES | VDR inhibitor
Cc1ccnc2nc(C(=O)OCC(=O)Nc3ccc4c(c3)OC(F)(F)O4)nn12 | 7%
CC(C(=O)N1CCCCC1)N1CCN(S(=O)(=O)c2ccc(Cl)cc2)CC1 (stereo not given) | -5%
CCOc1ccc2nc(-c3cc(NC(C)=O)ccc3O)sc2c1 | -2%
Cc1ccc(-c2nc3cccnc3o2)cc1NC(=O)COc1ccc(C(C)(C)C)cc1 | 7%
CCOC(=O)C1=C(C)N=c2s/c(=C3\C(=O)Nc4ccccc43)c(=O)n2C1c1ccc2c(c1)OCO2 (stereo not given) | -25%
CCCN1CCN(CCCNC(=O)CCn2nc(-c3ccccc3)ccc2=O)CC1 | -11%
CCOc1ccc(-c2noc(-c3cccnc3)n2)cc1OCC | -1%
O=C1CN(C(=O)COC(=O)c2cnc(Cl)c(Cl)c2)c2ccccc2N1 | -4%
CCOc1ccc(C(=O)NCC(=O)Nc2ccc3c(c2)OCO3)cc1OCC | -1%
CSc1cc(C)nc(NC(C)=O)n1 | -10%
CCN(c1ccccc1)S(=O)(=O)c1ccc2c(c1)OCCO2 | -6%
CCN(CC)S(=O)(=O)c1nnc(NC(=O)COc2ccc(C)cc2)s1 | 9%
O=C(CSc1nnc2ccc(-c3cccnc3)nn12)Nc1ccccc1 | 1%
CCc1ccc(N(CC(=O)NCc2ccco2)C(=O)CCC(=O)Nc2nccs2)cc1 | -10%
CC1CCC(NS(=O)(=O)c2ccc(Cl)nc2)CC1 (stereo not given) | -11%
CC(C)c1ccc(C(=O)Nc2nnc(S(=O)(=O)N3CCCCC3)s2)cc1 | 4%
O=C1NC(=S)S/C1=C/c1ccc(N2CCOCC2)o1 | u
Cc1ccc(Cn2cc(-c3ccccc3)nn2)cc1 | -3%
Cc1nn(C)c(C)c1CN(C)C(=O)CCCC(=O)O | -2%
Cc1ccc(CNC(=O)C2CCC(CNc3nc(=S)[nH]c4ccccc34)CC2)cc1 (stereo not given) | -6%
COc1ccc(CNC(=O)COc2cc3c(c4oc(=O)cc(C)c24)CCC(C)(C)O3)cc1 | -4%
CC(C)Cn1nc(NS(=O)(=O)c2cccc3nonc23)c2cc3ccccc3nc21 | -2%
Nc1c(Br)c(=O)[nH]c(=O)n1-c1ccc(F)cc1 | 6%
O=C1CCC([N+](=O)[O-])C(C2CC=CCC2)N1 (stereo not given) | -1%
Cc1ccc(C(=O)N2CCCCCC2)cc1S(=O)(=O)Nc1ccccc1 | 0%
O=C(CN1CCC(NC(=O)C2CC2)CC1)Nc1cccc(F)c1 | 0%
Cc1ccc(CO/N=C/C2=C(Cl)c3ccccc3CC2)cc1 | -4%
COc1ccc(C)cc1S(=O)(=O)N(CC(=O)Nc1ccc2c(c1)OCCO2)Cc1ccccc1 | 13%
CC1CCC(n2c(=S)[nH]c3ccccc3c2=O)CC1 (stereo not given) | -4%
CCOC(=O)N1C2=NC(C(=O)OC)=C(C(=O)OC)[C@@H]3N(Cc4ccccc4)c4ccccc4[C@]23C[C@H]1C(=O)OC | -21%
CCC(=O)NC1(C(F)(F)F)C(=O)NC(C)=C1C#N (stereo not given) | 15%
Cc1ccc(NC(=O)CS(=O)CC(=O)N(C2CCCC2)C(C)C(=O)NC2CCCCC2)cc1 (stereo not given) | -24%
COc1ccc(C(=O)N2CCN(Cc3nc(CC4CC4)no3)CC2)cc1 | -2%
O=C(Nc1cccc(S(=O)(=O)N2CCCCC2)c1)c1cc(=O)[nH]c2ccccc12 | 8%
N#Cc1cccc(NC(=O)Cn2nc(Cc3ccncc3)c3ccccc3c2=O)c1 | -7%
CC(C)NC(=O)Nc1n[nH]c(Nc2ccc(Cl)cc2)n1 | 7%
Cc1cc(NC(=O)Cc2ccsc2)ccc1Br | -17%
COc1cccc(N2C(=O)CC(N3CCc4ccccc4C3)C2=O)c1 (stereo not given) | 5%
COc1cccc(C2CC(=O)Nc3c2c(=O)[nH]c2ncnn32)c1OC (stereo not given) | 4%
CS(=O)(=O)c1ccccc1C(=O)N(CCc1ccccc1)Cc1ccccc1 | -26%
c1cncc(-c2noc(CC3CCCCC3)n2)c1 | -11%
O=C(CN1C(=O)NC2(CCc3ccccc32)C1=O)NCC(=O)Nc1ccc(F)cc1 (stereo not given) | -3%
Cn1nnnc1SCC(=O)N1N=C(c2cccs2)CC1c1cccs1 (stereo not given) | 8%
CC(C)CN(CC(C)C)C(=O)C12CCC(C)(C(=O)O1)C2(C)C (stereo not given) | -15%
O=[N+]([O-])c1cc(-c2nc(-c3ccccc3)no2)ccc1NC1CCCCC1 | 8%
COc1ccc(OCc2cc(C(=O)NC(C)Cc3ccccn3)no2)c(Cl)c1 (stereo not given) | 6%
O=[N+]([O-])c1ccc(N2CCCCC2)cc1NCCOc1ccccc1 | -10%
CCCCc1nnc(NC(=O)c2ccccc2OCc2c(C)noc2C)s1 | 9%
CCN(CC)CCNC(=O)c1sc2ncccc2c1-n1cccc1 | 5%
CCOCC(=O)Nc1cc(S(=O)(=O)N2CCOCC2)ccc1N1CCCCC1 | u
Continuation:
SMILES | VDR inhibitor
Cc1ccc(C(=O)Nc2nc(-c3ccccn3)cs2)s1 | 4%
Cc1ccc(C)c(OCc2cc(C(=O)NC(c3ccccn3)C(F)(F)F)no2)c1 (stereo not given) | -1%
CCCCCC(=O)N1CC2(CC(c3cccc(NC(=O)[C@@H]4CCC(=O)N4)c3)=NO2)C[C@@H]1C(N)=O (stereo not given in full) | 4%
CCn1c(=O)cc(OCC(=O)NCc2ccc(C)o2)c2ccccc21 | -16%
CCCc1nc2oc3c(NCC(C)O)ncnc3c2c2c1CCCC2 (stereo not given) | 17%
CCC(C(=O)NC1CCCCCC1)n1nc(C)c2c(C)n(-c3ccccc3)nc2c1=O (stereo not given) | -27%
CC(/C=C1\SC(=S)N(CCC(=O)Nc2ccc(O)cc2)C1=O)=C\c1ccccc1 | 0%
CCOC(=O)CS(=O)(=O)c1ccccc1 | -13%
Clc1ccc(OCCOCCNCc2ccccc2)cc1Cl | -4%
Cc1ccc(NC(=O)CN(C)C(=O)c2nn(C)c(=O)c3ccccc23)cc1 | 1%
O=C(NCCCn1ccnc1)c1ccc(Br)o1 | 7%
Cc1c(C)n(Cc2ccc(F)cc2)c2ccc(C(=O)NCc3ccco3)cc12 | 5%
COc1ccc(Cl)cc1NC(=O)Cn1nnc(C(=O)NCCc2ccc(OC)c(OC)c2)c1N | 15%
CSc1ccc(CCNC(=O)c2ccc3c(c2)nc2n3CCOC2)cc1 | 12%
Cc1ccccc1Cn1c(=O)n(-c2ccc(Cl)cc2)c(=O)c2c3c(sc21)CCCC3 | -10%
CCOC(=O)C1CCN(Cc2ccc(OC)c(C)c2OC)CC1 | 25%
O=C(CSc1nc2ccccc2s1)CSc1nc2ccccc2s1 | 20%
O=C(COc1ccc(F)cc1)Nc1cccc(OCc2cc(=O)n3ccccc3n2)c1 | 14%
COc1cc(OC)c2c(-c3cccc(-c4ccc(C(C)=O)cc4)c3)cc(=O)oc2c1 | 5%&-5%
Cc1ccc(NS(=O)(=O)c2ccc(-c3cnc(C4CC4)o3)cc2)cc1 | 7%
Cc1cc(C)c(C(=O)C2OC(=O)C(C)(C)C(=O)C2(C)C)c(C)c1 (stereo not given) | 8%
Cc1ccc(NC(=O)c2cccc(N3C(=O)C4C5C=CC(C5)C4C3=O)c2)cc1C (stereo not given) | -5%
CC(=O)C1=C(c2ccccc2)NC(=O)NC1c1ccc(O)c(O)c1 (stereo not given) | -7%
Cc1nc2ccc(S(=O)(=O)N(CC(=O)Nc3cccc(F)c3)Cc3ccccc3)cc2s1 | 9%
CCOC(=O)c1[nH]c2ccccc2c1NC(=O)c1ccc(OC(C)C)cc1 | -4%
Cc1cccc(N(C)S(=O)(=O)c2nnc(NC(=O)c3ccco3)s2)c1 | 17%
CC1Cc2nc(SCC(=O)Nc3ccc4c(c3)OCO4)n(Cc3ccccc3)c(=O)c2S1 (stereo not given) | 8%
COCC(C)NC(=O)CSc1nnc(-c2cccc(S(=O)(=O)N3CCCCC3)c2)o1 (stereo not given) | 3%
COc1cccc(-c2nnc(-c3ccc(C)o3)o2)c1 | -1%
COC(=O)c1cc(-c2ccc(OC)c(OC)c2)on1 | -2%
COc1ccc(NC(=O)/C(=C/c2cccs2)NC(=O)c2ccco2)cc1 | -4%
CCCSc1nc(C)cc(C)c1S(=O)(=O)c1ccccc1C | 8%
COc1ccc(N(C(=O)CNC(=O)c2ccco2)C(C(=O)NC2CCCC2)c2ccncc2)cc1 (stereo not given) | 4%
CN1CCN(C(=O)c2ccccc2NC(=O)c2cccc(Cl)c2)CC1 | 9%
Cc1ccc(NC(=O)C2CCCN(c3nnc(C)c4c(C)n(-c5ccccc5)nc34)C2)c(Cl)c1 (stereo not given) | 4%
O=C(CSCc1ccccc1)Nc1ccccc1C(=O)Nc1ccc(C(=O)O)cc1 | -15%
CN1CCN(S(=O)(=O)c2cccc(C(=O)NCc3ccc(Cl)cc3)c2)CC1 | 5%
CCCCc1c(O)nc(SCC(=O)Nc2ccc(C)cc2)n(-c2ccc(OC)cc2)c1=O | -14%
CCOc1ccc(NC(=O)c2cnn(-c3ccc(C)c(Cl)c3)c2C2CCNCC2)cc1 | -1%
COC(=O)c1cccc(-n2c(=O)n(Cc3ccccc3)c(=O)c3[nH]cnc32)c1C | -2%
CSc1nnc(SC)nn1 | 9%
CN(C)S(=O)(=O)c1ccc(C(=O)OCC(=O)Nc2ccc(OC(F)F)cc2)cc1 | 12%
CCOC(=O)N1CCN(S(=O)(=O)N2CCCC(C(=O)NCCc3ccc(OCC)c(OCC)c3)C2)CC1 (stereo not given) | -8%
CC(C)(C)c1nn(-c2ccccc2)c2[nH]c(=O)c(CNc3ccc4c(c3)OCCO4)cc12 | 18%
COc1cc(NC(=O)CCS(=O)(=O)c2ccc3c(c2)oc(=O)n3C)cc(OC)c1 | -8%
CCOC(=O)C1=NN(C(=O)c2ccc(C)cc2)C(O)(c2ccc(Cl)cc2)C1 (stereo not given) | -11%
COc1ccc(C2CC(c3ccc(F)cc3)n3nc(NS(C)(=O)=O)nc3N2)cc1 (stereo not given) | -17%
COc1cccc(/C=N/NC(=O)CNC(=O)C(c2ccccc2)c2ccccc2)c1O | 7%
COc1cc(/C=N/NC(=O)CCC(=O)NC2CCCCC2)ccc1C | 6%

4 of these compounds, reformatted.
mol: CCOC(=O)N1CCN(S(=O)(=O)N2CCCC(C(=O)NCCc3ccc(OCC)c(OCC)c3)C2)CC1 (stereo not given)
  VDR inhibitor: -8%

mol: CC(C)(C)c1nn(-c2ccccc2)c2[nH]c(=O)c(CNc3ccc4c(c3)OCCO4)cc12
  VDR inhibitor: 18%

mol: COc1cc(NC(=O)CCS(=O)(=O)c2ccc3c(c2)oc(=O)n3C)cc(OC)c1
  VDR inhibitor: -8%

mol: CCOC(=O)C1=NN(C(=O)c2ccc(C)cc2)C(O)(c2ccc(Cl)cc2)C1 (stereo not given)
  VDR inhibitor: -11%

Bioassay records: PubChem BioAssay, National Center for Advancing Translational Sciences (NCATS)

Some of the compounds tested (hit frequency here may not be typical).
